HNF4A DNA FP: change in binding of human HNF4A to DNA, primary screen, biochemical, fluorescence polarization, FITC-DNA | activity change, % at 10 µM | 360,000 compounds, 0.3% hits | AID 1224865, 2016 | 1 h; in the data active means activity change above about 30%, passing the limit was not always enough;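 further: controls were the assay level and a saturating level of protein; the project sought stronger binding though the title names inhibitors; some compounds called inactive have numbers as strong as hits; positive values seem to mean higher polarization but the record does not say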
LANA-H2A inh: blockers of LANA interaction with H2A/H2B – biochemical, FP readout, HTS, primary screen; Protein LANA1 (Human herpesvirus 8 type P (isolate GK18)), Q9QR71; cell-free LANA-H2A/H2B peptide, fluorescence polarization; inhibition, % (concentration not given with the values); 320,000 compounds, 0.6% hits; in the data active means inhibition mostly above about 10%, no sharp cut-off; inactive means mostly below about 6.7%;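 further: stock transfer was 7.5 nL into about 10 µL; 0% = median of vehicle wells and 100% = median of positive control wells; one replicate is shown; the record names a cut of 25% in any replicate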
Target sequence (Q9QR71 whole entry, looked up): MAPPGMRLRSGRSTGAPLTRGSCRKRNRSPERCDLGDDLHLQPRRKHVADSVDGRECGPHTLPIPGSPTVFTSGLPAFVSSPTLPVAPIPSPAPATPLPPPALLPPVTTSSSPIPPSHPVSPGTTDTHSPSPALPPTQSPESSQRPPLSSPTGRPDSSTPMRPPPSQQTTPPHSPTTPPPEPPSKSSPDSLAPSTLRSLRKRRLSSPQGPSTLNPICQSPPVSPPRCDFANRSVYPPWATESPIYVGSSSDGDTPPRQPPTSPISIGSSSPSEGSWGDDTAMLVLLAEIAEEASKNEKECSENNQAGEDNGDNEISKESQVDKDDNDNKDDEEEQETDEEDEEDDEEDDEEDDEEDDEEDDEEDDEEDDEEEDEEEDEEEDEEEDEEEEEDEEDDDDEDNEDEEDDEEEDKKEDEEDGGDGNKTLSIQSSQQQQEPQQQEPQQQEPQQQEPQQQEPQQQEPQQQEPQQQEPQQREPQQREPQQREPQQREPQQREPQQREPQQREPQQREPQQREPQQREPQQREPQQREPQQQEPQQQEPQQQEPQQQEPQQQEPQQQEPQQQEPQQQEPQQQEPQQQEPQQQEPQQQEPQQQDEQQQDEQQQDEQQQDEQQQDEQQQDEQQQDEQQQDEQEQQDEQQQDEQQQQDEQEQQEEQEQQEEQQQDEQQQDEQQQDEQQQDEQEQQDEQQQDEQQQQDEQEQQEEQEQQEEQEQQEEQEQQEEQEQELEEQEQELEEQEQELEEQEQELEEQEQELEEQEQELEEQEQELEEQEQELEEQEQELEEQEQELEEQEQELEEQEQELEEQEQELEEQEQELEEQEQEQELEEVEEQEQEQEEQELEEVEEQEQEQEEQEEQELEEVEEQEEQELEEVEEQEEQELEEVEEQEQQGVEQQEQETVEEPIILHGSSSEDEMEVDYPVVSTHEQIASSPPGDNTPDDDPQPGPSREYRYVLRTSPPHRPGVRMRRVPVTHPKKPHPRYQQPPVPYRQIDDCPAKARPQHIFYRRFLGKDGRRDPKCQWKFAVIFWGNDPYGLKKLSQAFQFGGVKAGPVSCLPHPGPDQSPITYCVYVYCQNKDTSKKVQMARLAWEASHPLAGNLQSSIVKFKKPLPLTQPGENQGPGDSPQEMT
Vif A3G: inhibitors of Vif binding to APOBEC3G peptide, primary screen, biochemical, TR-FRET, GST-Vif 1-94, biotin-A3G peptide, dose response retest (AID 1117319); Virion infectivity factor (Human immunodeficiency virus type 1 group M subtype B (isolate …; TR-FRET GST-Vif / biotin-A3G peptide binding; higher % means a stronger effect; test concentration not given here; strong numbers were not always called active; inhibition, %, or IC50 in µM where a hit was titrated; 260,000 compounds, 0.57% hits;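 active means above the screen mean plus three standard deviations and confirmed in dose response; inconclusive means results disagree or hit not tested in dose response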;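 further: Vif residues 1-94 fused to GST binding biotinylated APOBEC3G peptide 110-148; 0% = full assay without inhibitor and 100% = GST in place of GST-Vif; retest series ran down from 100 µM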
RanGTP-Imp inh: inhibitors of RanGTP-importin-beta interaction, primary screen, biochemical, FRET, CFP-Ran, YFP-importin-beta, homogeneous. inhibition, % (concentration not given with the values). 300,000 compounds, 1.1% hits. cell-free CFP-Ran/YFP-importin-beta FRET ratio;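 active means most replicates above 15%; inconclusive means exactly half above 15%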;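 further: 0% = DMSO wells and 100% = Ran loaded with GDP instead of GTP; wells of about 40 µL received 100 nL stock; the first replicate is given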
B2AR ag: beta2AR agonists driving receptor internalization, primary screen, cell-based, FAP fluorogen, flow cytometry | 340,000 compounds, 0.43% hits | Am2.2-beta2AR cells; reference of the scale not given here | Beta-2 adrenergic receptor (Homo sapiens), P07550 | AID 504454, 2011 | response, % (concentration not given with the values);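 active means response above a set limit, near 3 SD of response in nonfluorescent compounds, cut at about 42% in these data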;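 further: stock transfer was 100 nL into about 11 µL; a reference agonist was the positive control; negative values mostly stem from fluorescent compounds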
ALR H2O2 inh: inhibitors of human ALR sulfhydryl oxidase, primary screen, biochemical, H2O2 detection, HRP-luminol luminescence, single point. FAD-linked sulfhydryl oxidase ALR (Homo sapiens), P55789. inhibition, % (concentration not given with the values). 290,000 compounds, 3.8% hits. purified ALR, DTT oxidation;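 active means mean and each replicate at 75% or more; inconclusive means only one of the two met; inactive means neither met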;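 further: stock transfer was 7.5 nL into about 7.5 µL; 0% = neutral wells and 100% = wells with inactivated enzyme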
Calb FLC: C. albicans growth inhibition with fluconazole, primary screen, CaCi-2 strain, Alamar Blue fluorescence. C. albicans CaCi-2 (fluconazole-resistant clinical isolate) + fluconazole, 48 h. growth inhibition, % (concentration not given with the values). 300,000 compounds, 0.57% hits;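 active means most replicates above 75%; inconclusive means exactly half above 75%; inactive means most below 75%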;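 further: all wells also contain fluconazole at 8 µg/ml as a sub-toxic cotreatment; 0% = median of DMSO wells and 100% = median of geldanamycin control wells; wells of about 8 µL received 7.5 nL stock; the first replicate is given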
The depositor's hits bear a star; ? = inconclusive; · = not tested or not shown.

#	Compound	HNF4A DNA FP	LANA-H2A inh	Vif A3G	RanGTP-Imp inh
1	Cc1ccccc1N1C(=O)CC1(C#N)c1ccc(OCc2ccccc2)cc1 (stereo not given)	13	-0.4	·	-3.5
2	O=C(NCCO)/C(=C\c1cccc([N+](=O)[O-])c1)NC(=O)c1ccco1	4.0	-5.2	-6%	?
3	O=[N+]([O-])c1ccc(N2CCN(C(=S)Nc3ccc(F)cc3)CC2)cc1	-2.9	-1.2	·	-0.2
4	OC(CN1CCN(Cc2ccccc2)CC1)c1ccc(Br)cc1 (stereo not given)	-3.3	-1.1	·	-2.3
5	CC(C)CC(=O)N1CCN(Cc2cccc(F)c2)CC1	-0.5	-0.9	25%	1.0
6	CC1CCC/C(=N\NS(=O)(=O)c2ccccc2)C1 (stereo not given)	-0.6	2.3	13%	3.9
7	COc1ccc(CN2C(=O)c3cccnc3C2=O)cc1S(=O)(=O)N1CCOc2ccc(C)cc21	3.0	-1.7	3%	?
8	Clc1ccc(-c2onc3c2CCCC3)cc1	2.9	3.4	2%	2.7

#	B2AR ag	ALR H2O2 inh	Calb FLC
1	11	-12	7
2	-1	8	-6
3	13	·	-17
4	10	0	-11
5	2	6	-11
6	-7	·	-4
7	3	-5	1
8	-2	-5	-3

The listing continues.
#	Compound	HNF4A DNA FP	LANA-H2A inh	Vif A3G	RanGTP-Imp inh
9	COc1ccc(N2CC(C(=O)OCC(=O)c3cccc(OC)c3)CC2=O)cc1 (stereo not given)	1.8	-2.4	-2%	-3.6
10	COC(=O)C1=C(C)NC(=O)C1(NC(=O)CN1CCCC1=O)C(F)(F)F (stereo not given)	-3.8	8.1	17%	-0.3
11	Cc1c(C(=O)NC2CCCCC2)oc2c1C(=O)CC(C)(C)C2	-1.9	-0.7	0%	0.0
12	COc1ccc(NC(=O)C23CC4CC(C2)CC(n2cnc(Br)n2)(C4)C3)cc1Cl	-0.1	-2.9	3%	0.0
13	COc1cccc(NC(=O)N2CCCC2C(=O)NCc2ccccc2)c1 (stereo not given)	0.1	4.1	-1%	0.9
14	Cc1c(C#N)c2ccccc2n1CCOc1ccccc1F	4.5	2.4	-1%	-0.8
15	CCn1cc(C2C(C(=O)Nc3ccc(Br)cn3)=C(C)NC3=C2C(=O)CCC3)c(C)n1 (stereo not given)	-1.5	6.3	18%	3.2
16	O=C(NNC(=O)c1cnccn1)c1ccc(Cl)c(Cl)c1	2.1	-0.1	·	-2.2

#	B2AR ag	ALR H2O2 inh	Calb FLC
9	-2	-18	-8
10	2	-11	-2
11	-16	61	9
12	-6	-5	-18
13	4	-7	-11
14	0	-5	-12
15	-8	-4	-31
16	-1	-3	-21

Other structures:
#	Compound	HNF4A DNA FP	LANA-H2A inh	Vif A3G	RanGTP-Imp inh
17	Cc1ccc2[nH]nc(C(=O)N3CCCC(C(=O)c4ccc(Cl)cc4)C3)c2c1 (stereo not given)	-0.4	-1.8	·	1.4
18	COc1ccc2oc(C(=O)OCC(=O)NCc3ccccc3OC)c(C)c2c1	2.1	20	2%	1.6
19	Fc1ccc(C2CCCN2Cc2nc(Cc3ccccc3)no2)cc1 (stereo not given)	0.9	4.0	-2%	4.3
20	CC(C)CCNC(=S)Nc1ccc(F)cc1	-0.5	0.8	·	0.7
21	CCCn1cnc2scc(-c3ccc(OC)cc3)c2c1=O	2.9	1.2	-3%	0.1
22	COc1ccc(C(=O)N2CCCC(Nc3ccc(F)cc3)C2)cc1F (stereo not given)	-2.1	1.2	·	1.3
23	CCOC(=O)c1c(C)[nH]c(C)c1S(=O)(=O)NCCCc1ccco1	-2.2	-0.4	·	3.7
24	CCN1C(=O)/C(=C/N2CCc3ccccc3C2)SC1=S	-1.3	0.9	-2%	-1.6

#	B2AR ag	ALR H2O2 inh	Calb FLC
17	1	21	7
18	4	6	2
19	-12	-2	4
20	-4	1	-5
21	-10	-2	-4
22	2	65	-1
23	-8	1	-7
24	-2	·	0

Next results:
#	Compound	HNF4A DNA FP	LANA-H2A inh	Vif A3G	RanGTP-Imp inh
25	O=C1OCC2=C1C(c1ccc(F)cc1)Sc1ccccc1N2 (stereo not given)	1.6	3.9	6%	-0.3
26	COc1ccc(N(CC(=O)NCCSCc2ccco2)S(=O)(=O)c2ccccc2)cc1Cl	-2.2	-2.1	·	-1.2
27	CCCN(CCC)C(=O)/C=C/c1cccc([N+](=O)[O-])c1	1.2	-5.3	-4%	-3.4
28	Cc1ccc(C(=O)NC2CCCCCC2)cc1N1CCCC1=O	8.1	0.1	0%	-2.6
29	Cc1ccc(C(=O)CSc2nnnn2-c2ccccc2)o1	0.3	-7.4	17%	?
30	CCc1ccc(NC(=O)N2CCCCCC2)cc1	5.4	4.2	·	-1.7
31	COc1ccc(S(N)(=O)=O)cc1N(C)S(=O)(=O)c1ccccc1	0.4	4.3	8%	-1.3
32	C/C=C/c1ccc(OCCOc2ccc(C=O)cc2OC)c(OC)c1	-0.1	0.6	·	4.4

#	B2AR ag	ALR H2O2 inh	Calb FLC
25	5	·	16
26	-1	5	6
27	-4	-2	-5
28	-2	16	3
29	1	29	-4
30	11	-5	-11
31	-6	-4	-9
32	2	-1	17

Sorted by the number under LANA-H2A inh (high to low): some entries from above.
cpd	structure	LANA-H2A inh
15	CCn1cc(C2C(C(=O)Nc3ccc(Br)cn3)=C(C)NC3=C2C(=O)CCC3)c(C)n1 (stereo not given)	6.3
16	O=C(NNC(=O)c1cnccn1)c1ccc(Cl)c(Cl)c1	-0.1
11	Cc1c(C(=O)NC2CCCCC2)oc2c1C(=O)CC(C)(C)C2	-0.7
27	CCCN(CCC)C(=O)/C=C/c1cccc([N+](=O)[O-])c1	-5.3

Remaining list, next part:
#	Compound	HNF4A DNA FP	LANA-H2A inh	Vif A3G	RanGTP-Imp inh
33	O=C(NCc1ccc(F)cc1)C1CCN(S(=O)(=O)N2CCOCC2)CC1	5.4	3.6	11%	-3.2
34	COC(=O)c1sc(SC)c(S(=O)(=O)C(C)C)c1N/N=C(\C#N)C(=O)c1ccccc1	2.6	-1.1	-8%	1.4
35	COC(=O)n1ccc(C(=O)Nc2ccccc2F)n1	-2.4	-1.4	0%	4.3
36	Cc1cccc(N2CCCC2=Nc2ccc(Br)cc2C#N)c1	-0.6	-3.0	-3%	-2.5
37	CCCCn1nnc(NC(=S)NC(=O)c2ccc(-c3cccc(Cl)c3Cl)o2)n1	-1.5	0.8	·	-3.8
38	O=C(Nc1cccc(-c2cccc(Cl)c2)c1)C1CCN(Cc2ccc(CO)o2)CC1	0.3	-6.1	-1%	-3.7
39	O=C(NC1CCN(S(=O)(=O)c2ccccc2C(F)(F)F)CC1)c1ccco1	6.6	-1.3	·	?
40	COc1cccc(NC(=O)CN(C)C(=O)c2ccc(NC3CC3)c([N+](=O)[O-])c2)c1	2.3	-13	-18%	·

#	B2AR ag	ALR H2O2 inh	Calb FLC
33	1	-18	-12
34	3	-1	2
35	-3	25	-2
36	3	·	-5
37	-7	1	7
38	17	19	-16
39	-6	4	-5
40	7	7	·

The listing continues:
#	Compound	HNF4A DNA FP	LANA-H2A inh	Vif A3G	RanGTP-Imp inh
41	COc1ccc(CNC(=S)Nc2cccc(OC)c2)cc1	-0.4	-5.8	·	-2.0
42	COc1ccc(C(C(N)=O)c2ncc(C(F)(F)F)cc2Cl)cc1OC (stereo not given)	0.8	-1.8	-1%	-3.0
43	COc1cc(/C=C2\SC(=Nc3ccc(O)cc3)NC2=O)cc(OC)c1O	8.1	11*	-3%	-1.7
44	O=C(OC1CCCCC1=O)c1cc(S(=O)(=O)N2CCOCC2)ccc1F (stereo not given)	1.7	-2.1	·	-5.1
45	CCOc1ccc2nc(N3CCC(C(=O)N4CCN(c5ncccn5)CC4)CC3)sc2c1	4.7	2.6	·	1.1
46	CN(C=[N+](C)C)c1cccc2c1C(=O)c1ccccc1C2=O	-12	12	·	-2.5
47	Cc1ccc(S(=O)(=O)Nc2ccc3nc(N)sc3c2)cc1	-3.5	-0.1	17%	-3.5
48	CCc1c(C)c2ccc(OCC(=O)N(C)C)c(C)c2oc1=O	-2.7	1.4	1%	0.1

#	B2AR ag	ALR H2O2 inh	Calb FLC
41	1	-5	-53
42	-1	-1	-1
43	-40	8	12
44	2	-1	-8
45	-5	·	5
46	-3	-124	15
47	4	?	4
48	-19	-7	2

Additional entries follow.
#	Compound	HNF4A DNA FP	LANA-H2A inh	Vif A3G	RanGTP-Imp inh
49	Cc1ccc(C)c(CN2CCC(CNC(=O)Nc3ccc(C)c(C)c3)CC2)c1	2.8	0.4	-9%	1.9
50	Cc1ccc(NC(=O)C/C(N)=N/O)cc1Cl	0.2	4.5	-7%	1.5
51	COc1ccc(N(C(=O)c2cnccn2)C(C(=O)NC2CCCCC2)c2ccc(O)cc2)cc1 (stereo not given)	-1.9	1.2	?	-2.1
52	Cc1sc2nc(CN3CCOCC3)nc(NCCc3ccccc3)c2c1C	2.0	0.4	?	?
53	COC(=O)CCSc1cc(NCCOC(C)=O)c([N+](=O)[O-])c2nonc12	-1.6	-3.8	?	3.2
54	O=C(CN1C(=O)CCS(=O)(=O)c2ccccc21)Nc1ccc2c(c1)OCCO2	-3.5	·	30%	1.1
55	CCN(C(=O)COC(=O)c1ccc(OCc2c(C)noc2C)cc1)c1ccccc1	-0.2	-3.3	-4%	0.1
56	COC(=O)c1ccccc1NC(=O)C1CCN(C(=O)Cc2ccccc2)CC1	0.1	-16	-13%	0.1

#	B2AR ag	ALR H2O2 inh	Calb FLC
49	4	0	-4
50	-4	-8	-29
51	-5	0	-17
52	5	5	-1
53	62*	-14	-2
54	-3	·	?
55	3	·	-3
56	10	·	?

The results go on.
#	Compound	HNF4A DNA FP	LANA-H2A inh	Vif A3G	RanGTP-Imp inh
57	CC(C)(C)C(=O)Nc1ccc(S(=O)(=O)N2CCCC2)cc1	-4.4	-3.2	6%	3.0
58	COc1cc(/C=C2/C(=O)N(c3ccc(Br)cc3)N=C2C)cc([N+](=O)[O-])c1O	·	-2.7	·	-2.3
59	CSc1nc(Sc2ccc(Cl)cc2)c2ccccc2n1	2.2	-5.3	6%	0.0
60	COc1cccc(NC(=O)CN(C)C(=O)Cn2c(=O)oc3ccccc32)c1	3.5	1.0	2%	2.5

#	B2AR ag	ALR H2O2 inh	Calb FLC
57	1	-5	-22
58	·	-9	6
59	6	-2	?
60	10	-2	4

Complete entries, quoted from the list:
Record of COc1cc(/C=C2/C(=O)N(c3ccc(Br)cc3)N=C2C)cc([N+](=O)[O-])c1O → HNF4A DNA FP = ·; LANA-H2A inh = -2.7; Vif A3G = ·; RanGTP-Imp inh = -2.3; B2AR ag = ·; ALR H2O2 inh = -9; Calb FLC = 6
Record of CC(C)(C)C(=O)Nc1ccc(S(=O)(=O)N2CCCC2)cc1 → HNF4A DNA FP = -4.4; LANA-H2A inh = -3.2; Vif A3G = 6%; RanGTP-Imp inh = 3.0; B2AR ag = 1; ALR H2O2 inh = -5; Calb FLC = -22

Not a hit list; overall some 6.3% were active at least once.
